# Source: PubChem BioAssay
# VACV Venus inh: vaccinia inhibition (Venus reporter); Vaccinia virus Venus reporter expression, fluorescence; 330,000 tested, 0.46% active; AID 720580; Potency, µM (series often up to 36.5 µM), inactives show at the highest dose activity change, negative = inhibition, usual class: inhibitors; active means well fitted inhibition curve with a large enough effect; inconclusive means small, poorly fitted or top-dose-only effect; inactive means no such curve, though single readings can be large or run the other way; tested in A549 cells; note: nearly all actives have a fitted effect of over 30% in size; inactives centre near -10
# Vaccinia mCherry: vaccinia inhibition (mCherry reporter); Vaccinia virus mCherry reporter infection, fluorescence; about a quarter of the inactives have no number; Potency, µM (titrated, usually from 36.5 µM), without a hit: at the top dose activity change, negative = inhibition, hits mostly inhibitors; 310,000 tested, 0.63% active; active = well fitted inhibition curve with a large enough effect; inconclusive = small, poorly fitted or top-dose-only effect; inactive = no such curve, though single readings can be large or run the other way; tested in A549 cells; note: nearly all actives have a fitted effect of over 35% in size; inactives centre near -10
# Starred values were filed as active, the others as inactive; i = inactive; u = inconclusive; x = not tested or not shown; & = joins results of further samples. % is set by controls: 0 for no effect and ±100 for the full control effect; potency is the fitted concentration of half-maximal effect.
SMILES,VACV Venus inh,Vaccinia mCherry
CC(C)(C)C1CCC(=NNC(=O)c2cc3c(s2)CCCC3)CC1 (stereo not given),-25%,-9%
CCN(c1ccc(Cl)cc1)S(=O)(=O)c1nnc(NC(=O)C(C)C)s1,-13%&-8%,-5%
Cc1cccc(C(=O)O/N=C/c2ccc(Br)cc2)c1,-6%,-9%
CCOC(=O)c1cc(-c2ccc(F)cc2)n(CCC(=O)Nc2cc(OC)cc(OC)c2)c1C,-19%,-4%
CCOc1ccccc1-c1cnc(NC)cn1,2%,1%
Cc1ccc(S(=O)(=O)N2CC(O)CC2C(=O)NCc2ccc3c(c2)OCO3)cc1 (stereo not given),-5%,-7%
CN1CCCN(C(=O)CNC(=O)c2ccccc2F)CC1,-15%,-10%
Cc1ccc(-c2noc(C3CCCN(C(=O)c4ccccc4Br)C3)n2)o1 (stereo not given),-6%,i
CC(=O)C1=C(C)NC(SCc2ccc(C#N)cc2)=C(C#N)C1c1ccco1 (stereo not given),-10%,i
CCOc1cccc(C(=O)Nc2cnn(Cc3ccccc3)c2)c1,u,x
OC1C(O)C(O)C(O)C(O)C1O (stereo not given),-11%&-15%&-9%,-13%&0%
O=C(CN1C(=O)COc2ccc(S(=O)(=O)N3CCOCC3)cc21)NCc1ccc(F)cc1,-5%,-4%
Nc1ccc(C(=O)Nc2ccc(OC(F)(F)C(F)F)c(NC(=O)c3ccc(N)cc3)c2)cc1,-25%,u
